Assay outcomes as filed in PubChem.
Yeast UUG start – modulators of yeast start codon fidelity, primary screen, whole organism, S. cerevisiae, single point, plate reader; S. cerevisiae UUG-firefly luciferase reporter, luminescence/redox ratio; activity score, % at 18.7 µM; 350,000 compounds, 0.13% hits; AID 602363, 2012;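 active = replicate mean at a twofold rise or more, about +100% in these data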;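 note: firefly luciferase made from a UUG start codon reports start codon fidelity; reporter light over untreated wells divided by growth signal over untreated wells; some hits fall short of that in this replicate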
HIV Env fusion – inhibitors of HIV-1 Env-driven cell-cell fusion, primary screen, HeLa-JRFL effector, CEM21 target cells, luciferase. inhibition, % at 12.3 µM. 360,000 compounds, 1.1% hits. AID 651610, 2012;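 active = mean replicate inhibition score of at least 50 and every replicate individually at or above 50; inconclusive = only one of the two criteria met; inactive = mean below 50 and not all replicates reaching 50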;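 note: 0% = plate neutral controls and 100% = maraviroc near 300 nM; one replicate is shown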
eIF4H inh – human eIF4H binding inhibitors, primary screen, translation initiation inhibitor project, biochemical, uHTS, fluorescence polarization. inhibition, % at 35 µM. 290,000 compounds, 0.94% hits. eIF4H fluorescence polarization binding assay;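 active = 50% or more with normal probe brightness, or confirmed in later tests; inconclusive = above 50% with abnormal brightness, or retests that disagree; inactive = below 50% or failed in later tests; about a fifth of its hits are not listed in these tables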;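 note: calls also rest on retests at 20 µM and on dose response follow-up; 0% = protein and probe with vehicle and 100% = probe without protein; strong numbers were not always called active; many hits fall short of the cut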
MT1-MMP act inh – blockers of MT1-MMP proenzyme processing, primary screen, HT1080 RFP-PRO-GFP cells, GFP/RFP fluorescence; Matrix metalloproteinase-14 (Homo sapiens), P50281; GFP/RFP ratio fluorescence, overnight; percent of plate control window, DMSO zero; GFP/RFP ratio change, % at 20 µM; 360,000 compounds, 0.061% hits; AID 651647, 2012;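 active = GFP/RFP ratio change of at least 30% with cell ATP level not reduced by more than half and red fluorescence within 50% of control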; note: strong numbers were not always called active
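Test system: HT1080 cells expressing an RFP-PRO-GFP fluorescent reporter construct / Compound dosing: single-point 20 µM compound, 1% DMSO / Schedule: cells overnight before dosing, compound overnight, 37 °C, 5% CO2 / Evaluation: GFP/RFP fluorescence ratio / Control set: DMSO and RFP-L50D-GFP cell wells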
PABP FP inh – PABP poly(A) RNA binding inhibitors, primary screen, biochemical, fluorescence polarization, uHTS; Polyadenylate-binding protein 1 (Homo sapiens), P11940; inhibition, % at 35 µM; 290,000 compounds, 1% hits; AID 2014, 2009;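 active = 50% or more with normal probe brightness, or confirmed in later tests; inconclusive = above 50% with abnormal brightness, or retests that disagree; inactive = below 50% or failed in later tests; about a fifth of its hits are not listed in these tables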;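 note: calls also rest on retests at 20 µM and on dose response follow-up; controls were probe without protein and protein plus probe with vehicle; some compounds called inactive have numbers as strong as hits; many hits fall short of the cut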
Target sequence (P11940 whole entry, looked up): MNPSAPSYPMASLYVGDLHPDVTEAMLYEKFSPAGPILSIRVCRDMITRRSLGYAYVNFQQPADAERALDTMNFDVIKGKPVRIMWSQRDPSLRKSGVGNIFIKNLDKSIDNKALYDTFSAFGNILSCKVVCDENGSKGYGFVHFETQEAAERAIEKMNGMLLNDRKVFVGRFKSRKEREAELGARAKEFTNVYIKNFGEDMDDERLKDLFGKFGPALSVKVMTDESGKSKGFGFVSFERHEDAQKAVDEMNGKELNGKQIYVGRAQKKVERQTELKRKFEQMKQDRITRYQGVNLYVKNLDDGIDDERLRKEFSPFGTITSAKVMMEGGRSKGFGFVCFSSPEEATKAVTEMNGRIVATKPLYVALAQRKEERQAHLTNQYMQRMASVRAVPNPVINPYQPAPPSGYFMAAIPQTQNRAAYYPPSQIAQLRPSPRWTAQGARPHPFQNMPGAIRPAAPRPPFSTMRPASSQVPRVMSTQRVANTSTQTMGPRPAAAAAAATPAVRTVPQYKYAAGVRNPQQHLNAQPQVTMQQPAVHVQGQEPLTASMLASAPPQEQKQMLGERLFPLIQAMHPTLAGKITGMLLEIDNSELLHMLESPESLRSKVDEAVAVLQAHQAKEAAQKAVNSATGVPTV
CSC inhib – cancer stem cell viability inhibitors, primary screen, luminescence. cancer stem cell-like cells viability. inhibition, % at 7.5 µM. 300,000 compounds, 1.1% hits;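 active = mean at 75% or more and at least half the replicates too; inconclusive = mean and replicates disagree; tested in HMLE shEcad cells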;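 note: 0% = median of negative and 100% = median of positive control wells; the first replicate is given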
Rce1 inhib – yeast Rce1p protease inhibitors, primary screen, biochemical, fluorescence, cell-free homogeneous. CAAX prenyl protease 2 (Saccharomyces cerevisiae (strain ATCC 204508 / S288c)), Q03530. yeast membranes, quenched prenylated peptide cleavage fluorescence. calls only. 290,000 compounds, 0.27% hits. AID 2563, 2010;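 active = fall in fluorescence gain of 50% or more versus controls, with final raw signal at or below 3038400; inconclusive = same 50% fall but final raw signal above 3038400; inactive = fall in fluorescence gain under 50%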;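 note: plate controls were neutral control wells for no effect and wells lacking membranes for full effect; tested at 10 µM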
eIF4H inh retest – second read-out of eIF4H inh, no call of its own (marks repeat the call); inhibition, %; compound at 20 µM; confirmation average;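 mean of two retest wells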
PABP FP inh retest – recorded beside PABP FP inh, whose call it bears; inhibition, %; compound at 20 µM; confirmation repeats;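 mean of two retest wells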
MT1-MMP act inh RFP – also measured in MT1-MMP act inh; calls as there; RFP signal change, %; measured here: RFP expression control read;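 0 = vehicle wells; hits needed this value within 50% of zero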
Starred values were filed as active, the others as inactive; i = inactive; u = inconclusive; x = not tested or not shown; & = joins results of further samples.

SMILES | Yeast UUG start | HIV Env fusion | eIF4H inh | MT1-MMP act inh | MT1-MMP act inh RFP | PABP FP inh | CSC inhib | Rce1 inhib | others
COc1ccc(N(CC(=O)Nc2ccc(C)cn2)S(=O)(=O)c2c(C)noc2C)cc1 | -12 | -33 | 2 | 2 | -3 | -5 | -5 | i
COc1ccc(C(C)=O)cc1CSc1nnc(C)s1 | -6 | x | -6 | -4 | 1 | 2 | -3 | i
O=C(c1cccc(S(=O)(=O)Nc2ccccc2Cl)c1)N1CCN(C(=O)c2ccco2)CC1 | -5 | 7 | 8 | -3 | 0 | -1 | -17 | i
Cc1ccc(Nc2nc(Cl)nc3ncn(C)c23)c(C)c1 | -15 | -11 | x | -3 | 2 | x | x | x
CC(=O)Nc1ccc(NC(=O)CSc2nnc(CC(C)O)n2-c2ccccc2)cc1 (stereo unspecified) | -13 | -18 | -5 | -5 | -1 | -8 | -4 | i
O=C(NCc1ccco1)c1ccc(Cl)cc1[N+](=O)[O-] | 10 | -13 | -6 | 2 | 6 | 0 | -13 | i
COc1cc(S(=O)(=O)N2CCC(O)(c3cccc(C(F)(F)F)c3)CC2)ccc1-n1cnnn1 | -13 | -70 | 8 | 0 | -5 | 0 | -14 | i
COc1cccc(-c2nn(-c3ccccc3)cc2C(=O)n2nnc3ccccc32)c1 | -13 | -280 | -8 | 4 | 3 | -8 | 47 | i
Cc1cc(C)c2c(c1)C1C=CCC1C(c1ccc(S(=O)(=O)N3CCOCC3)cc1)N2 (stereo unspecified) | -21 | x | -10 | 0 | 4 | 4 | 4 | i
COc1ccc(N=C2S/C(=C\c3ccc(OC(C)C(=O)O)c(OC)c3)C(=O)N2CCc2c[nH]c3ccccc23)cc1 (stereo unspecified) | x | 10 | u | -3 | -5 | 40* | x | i | PABP FP inh retest=100*
Cc1nccn1CCCNC(=O)CC1C(=O)NCCN1Cc1ccc(F)cc1Cl (stereo unspecified) | 0 | -9 | -6 | 4 | 5 | 17 | -3 | i
O=C(C1=NNCC1c1ccccc1)C1CO1 (stereo unspecified) | -7 | -17 | -1 | 0 | 1 | 9 | x | i
COC(=O)C1=CN(C(C)C)C=C(C(=O)OC)C1c1cccc(OC)c1 | x | x | -9 | 0 | 0 | -4 | x | u
Cc1cc(NC(=O)CCC(=O)N(c2cccc(F)c2)C(C(=O)NC2CCCC2)c2ccc(C)o2)no1 (stereo unspecified) | 22 | 11 | 6 | 1 | 1 | 7 | x | i
CC(C)c1ccc(NC2CCCN(C(=O)c3cccc(N4CCNC4=O)c3)C2)cc1 (stereo unspecified) | -5 | 3 | -1 | -1 | -5 | 1 | -7 | i
Cc1[nH]c(=O)c(C(=O)/C=C/c2ccccc2F)c2c1CCCC2 | -10 | x | -1 | -24 | -29 | -9 | 38 | i
CC(=O)NS(=O)(=O)c1ccc(NC(=O)c2ccc(NC(=O)c3cccs3)cc2)cc1 | -10 | x | x | -1 | 7 | x | -9 | x
N#CCCCN1C(=O)C(O)(CC(=O)c2ccc3c(c2)OCCO3)c2ccccc21 (stereo unspecified) | -5 | x | -8 | 2 | 6 | -8 | 0 | i
N#Cc1cc([N+](=O)[O-])cnc1NCC(O)CO (stereo unspecified) | 5 | -33 | 10 | 3 | 6 | 14 | -8 | i
CC(C)NC(=O)NC(=O)CSc1nnc(C(F)(F)F)n1C | x | -10 | -12 | 0 | 4 | 0 | -8 | i
Cc1ccc(NC(=O)C(C)OC(=O)CCC2CCCCC2)cc1 (stereo unspecified) | 3 | -4 | x | -2 | 0 | x | -6 | i
COC(C[C@@H](O)CC(=O)COCc1ccccc1)OC | -14 | -8 | -5 | -1 | 1 | -3 | x | i
Cc1nn2c(-c3ccccc3)nnc2c2ccccc12 | -11 | i | -7 | -1 | 4 | 0 | -8 | x
O=C(CNC(=S)N(Cc1ccccc1)Cc1cccnc1)NC1CCCCC1 | x | 16 | 3 | -1 | -4 | 2 | -10 | i
COc1ccc(N(CC(=O)NCc2ccccc2)C(=O)CCC(=O)Nc2cc(C)ccn2)c(OC)c1 | x | -102 | 1 | 1 | -2 | -2 | -26 | i
C[C@@H]1CN([C@H](C)CO)C(=O)c2cccc(NS(=O)(=O)c3cccs3)c2O[C@H]1CN(C)Cc1ccccc1 | -23&6 | -48 | x | 6 | -9 | x | -6 | x
CCOC(=O)c1c(C)[nH]c(C)c1C(=O)COC(=O)c1ccc(Cl)c(S(N)(=O)=O)c1 | 13 | x | -2 | -1 | -1 | -5 | -1 | i
Cc1cccc(C(=O)NC2CCN(CC(=O)Nc3ccc4c(c3)OCO4)CC2)c1 | 12 | 11 | -8 | -1 | 2 | -1 | -13 | i
CC1=C(C(=O)OCC2CCCO2)C(c2ccccc2Cl)NC(=O)N1 (stereo unspecified) | -10 | x | 4 | 0 | 3 | -5 | -5 | i
O=C(Cc1cccc(NC(=O)C2CCCN(C(=O)CCc3ccccc3)C2)c1)Nc1cccc(C(=O)N2CCOCC2)c1 (stereo unspecified) | -1 | 8 | x | 2 | 0 | x | x | x
COc1ccc(-c2nc(SCC(=O)NC3CCCCC3)n[nH]2)cc1 | 3 | 7 | -10 | 2 | -8 | -2 | 9 | i
CCCS(=O)(=O)N1CCCC(C(=O)NCc2ccco2)C1 (stereo unspecified) | 2 | x | 68 | 4 | 5 | 9 | 6 | i | eIF4H inh retest=35;PABP FP inh retest=23
CCOC(=O)CSc1nnc(CSc2nc3sc4c(c3c(=O)[nH]2)CCC4)n1C | -17 | -16 | -10 | -1 | 2 | 8 | -7 | x
C1CCN(C2CCN(c3nc4nonc4nc3N3CCSCC3)CC2)C1 | x | -33 | 0 | 1 | 4 | -6 | -7 | x
COc1cc2c(cc1NCc1ccc3c(c1)OCO3)oc1ccccc12 | -17 | -63 | -7 | -3 | -1 | 2 | 48 | i
CC(C)CCN1CC(C(=O)NC(C)C)CC1=O (stereo unspecified) | -6 | x | -5 | 1 | 0 | -3 | -5 | i
Cn1c(=O)oc2cc(S(=O)(=O)NCc3ccc(C(=O)O)cc3)ccc21 | -9 | 2 | u | x | x | u | -14 | x
O=C(Nc1nccs1)c1cc(S(=O)(=O)N2CCCCC2)ccc1Cl | -15 | x | 0 | 0 | 3 | 6 | -16 | i
Cc1ccc(-n2nc(C)c(/C=N/NC(=O)c3cccnc3)c2Cl)cc1 | -11 | -1 | 0 | 0 | 5 | -6 | 10 | i
CCOc1ccc(N(CC)S(=O)(=O)c2cccc3nsnc23)cc1 | 0 | -142 | 33 | 1 | 2 | 51 | -10 | i | eIF4H inh retest=4;PABP FP inh retest=37

The list goes on, starting with the last 2 of the part before.
SMILES | Yeast UUG start | HIV Env fusion | eIF4H inh | MT1-MMP act inh | MT1-MMP act inh RFP | PABP FP inh | CSC inhib | Rce1 inhib | others
Cc1ccc(-n2nc(C)c(/C=N/NC(=O)c3cccnc3)c2Cl)cc1 | -11 | -1 | 0 | 0 | 5 | -6 | 10 | i
CCOc1ccc(N(CC)S(=O)(=O)c2cccc3nsnc23)cc1 | 0 | -142 | 33 | 1 | 2 | 51 | -10 | i | eIF4H inh retest=4;PABP FP inh retest=37
CCn1c(=S)[nH]c2nc3c(cc2c1=O)CCCC3 | -3 | -48 | -4 | 3 | -7 | 4 | -5 | i
CCCCn1c(N)c(N(CC)C(=O)CSc2nnc(-c3ccco3)n2CC)c(=O)[nH]c1=O | x | 1 | x | 4 | 6 | x | 0 | i
O=C(O)C/C(=C\c1cc(Br)cs1)c1nc2ccccc2o1 | 9 | -12 | -4 | 1 | 4 | 12 | -7 | i
COc1ccccc1C(=O)COC(=O)c1ccc(N(C)C)cc1 | x | -45 | -1 | 9 | 7 | 0 | 6 | i
CC(C)(C)N1NC(=O)Nc2ccccc2C1=O | -6 | 19 | 2 | 1 | 5 | 6 | -6 | i
Cc1noc(C)c1CSc1ncnc2sc3c(c12)CCCCC3 | -21 | 23 | 7 | -1 | 0 | 15 | 36 | i
CCN(CC)Cc1c(O)ccc2c(=O)c(-c3ccccc3)coc12 | 6 | 0 | -8 | -2 | -8 | 5 | 6 | i
CCn1c(SCc2cccc(C(F)(F)F)c2)nnc1-c1ccco1 | -11 | 10 | 0 | -6 | 0 | -6 | -4 | i
Cc1nc(Cl)sc1C(=O)O | -8 | -52 | -9 | -1 | 6 | -1 | -10 | i
CCC(C)NC(=O)c1cc(-c2ccccc2O)on1 (stereo unspecified) | -7 | -3 | 2 | 2 | 4 | 5 | 7 | i
CC1(C)CC(=O)c2c(Cc3ccccc3)noc2C1 | -19 | -13 | 2 | -1 | -12 | -4 | -1 | i
Cc1ccc(NC(=O)CSCc2cc(=O)n3ccsc3n2)cc1 | -18 | x | -4 | -5 | 1 | -17 | -7 | i
O=C(c1cc(COc2c(F)cccc2F)on1)N1CCC(c2ccccc2F)C1 (stereo unspecified) | x | -19 | -4 | -6 | 1 | -6 | 6 | i
O=C(COC(=O)C1(c2ccc(Cl)cc2)CCCC1)Nc1ncc(C(F)(F)F)cc1Cl | x | -20 | 0 | -2 | -2 | 7 | 7 | i
COc1cc(/C=N/Nc2ccccc2[N+](=O)[O-])ccc1OC(=O)c1ccccc1F | -11 | -48 | 0 | 17 | -3 | 2 | 33 | i
CC(=O)c1cccc(-c2cnc3c(NC=O)cc(-c4ccccc4Oc4ccccc4)cn23)c1 | -16 | 22 | x | 0 | -10 | x | x | x
O=C(CNCc1ccccc1Cl)Nc1cc(S(=O)(=O)N2CCOCC2)ccc1Cl | -10 | -21 | x | 3 | -4 | x | -9 | x
CN(c1cccc(NS(=O)(=O)c2cccc([N+](=O)[O-])c2)c1)S(C)(=O)=O | x | 12 | -2 | 0 | 2 | 5 | 9 | i
CCS(=O)(=O)N1CCC(C(=O)NCc2cccnc2)CC1 | -18 | x | 1 | 3 | -1 | 0 | -13 | i
CCOC(=O)N1CC=C2C(C#N)=C(N)C(C#N)(C#N)[C@H](c3ccc(OCC)c(OCC)c3)[C@H]2C1 | -13 | x | 15 | -21 | -3 | 23 | 4 | i
Cc1cccc(NC(=O)c2ccc(Cl)nc2)n1 | -7 | -9 | -11 | 1 | 2 | 3 | 0 | i
Cc1cc(C(O)c2ncc(-c3ccccc3Cl)[nH]2)ccc1F (stereo unspecified) | -14 | 1 | x | -2 | -1 | x | x | x
COc1cccc(OCCNC(=O)c2cc([N+](=O)[O-])cc([N+](=O)[O-])c2)c1 | x | 2 | 4 | 5 | 3 | -20 | 0 | i
CC(C)(C)OC(=O)[C@H](Cc1ccccc1)NC(=O)c1nc[nH]c1C(=O)NC1CCN(C(=O)OC(C)(C)C)CC1 | 10 | -12 | 10 | 1 | -1 | 9 | 1 | i
Cc1cc(Oc2ccccc2)nc(SCC(N)=O)n1 | 3 | -114 | 12 | 5 | 2 | -2 | 0 | i
Cc1cc(NC(=O)Nc2cccc([N+](=O)[O-])c2)no1 | x | -32 | 3 | 1 | -6 | 15 | -9 | i
O=c1sc2ccccc2c(N2CCOCC2)c1[N+](=O)[O-] | -2 | -10 | 0 | 1 | 3 | -7 | 13 | i
